# LASV entry inh = inhibitors of Lassa virus binding or cell entry | Lassa virus pseudotype entry inhibition, cell reporter; control for the full effect not named in the record | Potency, µM (doses to about 37.9 µM), without a hit: top-dose activity change, negative = inhibition, hits mostly inhibitors | 1.2% of 300,000 active | AID 540256; active means well fitted inhibition curve with a large enough effect; inconclusive means small, poorly fitted or top-dose-only effect, or effect the other way; inactive means flat fitted curve, though single readings scatter; tested in HEK293 cells; note: % is set by controls: 0 for no effect and ±100 for the full control effect; nearly all actives have a fitted effect of over 50% in size; luciferase read-out
# RE007 growth inh = less growth of the S. pombe RE007 Vpr strain; S. pombe RE007 Vpr strain, BacTiter-Glo ATP luminescence, 24 h; control for the full effect not named in the record; Potency, µM (series often up to 92.2 µM), inactives show at the highest dose activity change, negative = less growth; 0.21% of 360,000 active; AID 651644; active = well fitted falling curve with a large enough effect; inconclusive = small, poorly fitted or top-dose-only effect; inactive = no such curve, though single readings can be large or run the other way;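 note: % is set by controls: 0 for no effect and ±100 for the full control effect; nearly all actives have a fitted effect of over 50% in size; the assay follows cell death caused by Vpr and the record does not say whether a fall means rescue or toxicity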
#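 Fission yeast RE007 carrying one integrated HIV-1 vpr copy, seeded at OD 0.01 in PMG+AL medium with 23 nL pinned compound. Grown 24 h at 30 degrees; viability read by BacTiter-Glo luminescence after 5 min.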
# Cruzain Triton = cruzain (T. cruzi) inhibition with detergent | P25779 | purified cruzain, Z-FR-AMC fluorescence, 0.01% Triton | Potency, µM, for inactives: max response, negative = inhibition, actives largely listed as inhibitors | 0.43% of 200,000 active;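 note: plate controls were neutral wells for no effect and buffer without enzyme for full effect; nearly all actives have a fitted effect of over 40% in size; top concentration of the series not given in the record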
# Target sequence (P25779 123-467 limits assumed): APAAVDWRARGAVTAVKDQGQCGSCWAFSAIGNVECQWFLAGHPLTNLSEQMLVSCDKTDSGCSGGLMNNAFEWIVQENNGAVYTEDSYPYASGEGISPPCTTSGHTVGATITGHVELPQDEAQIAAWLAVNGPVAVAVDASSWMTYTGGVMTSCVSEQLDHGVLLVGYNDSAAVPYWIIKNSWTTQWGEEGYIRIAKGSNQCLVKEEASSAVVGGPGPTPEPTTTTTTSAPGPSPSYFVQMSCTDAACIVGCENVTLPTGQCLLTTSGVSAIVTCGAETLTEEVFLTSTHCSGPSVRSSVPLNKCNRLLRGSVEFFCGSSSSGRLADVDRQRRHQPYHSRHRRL
#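 Cysteine protease activity tested under reducing, mildly acidic conditions (100 mM sodium acetate pH 5.5, 5 mM DTT) plus 0.01% Triton X-100. Cruzain 1.5 nM; substrate Z-FR-AMC 2 uM; 15 min compound preincubation at room temperature.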
# Marburg entry inh = blocks Marburg virus binding to or entry into cells; AID 540276; 1.8% of 300,000 active; Potency, µM (doses to about 37.8 µM), inactives show at the highest dose activity change, negative = inhibition, actives largely listed as inhibitors; Marburg virus pseudotyped entry inhibition, cell reporter; control for the full effect not named in the record; about a third of the inactives were read at about 46 µM; active = well fitted inhibition curve with a large enough effect; inconclusive = small, poorly fitted or top-dose-only effect, or effect the other way; inactive = flat fitted curve, though single readings scatter; tested in HEK293 cells; about a fifth of its hits are not listed in these tables; note: % is set by controls: 0 for no effect and ±100 for the full control effect; luciferase read-out
# NS1 inh = blocks influenza NS1 protein function; S. cerevisiae slowed by influenza A NS1, growth recovery by OD600; Potency, µM (top dose mostly 46.1 µM), without a hit: at the highest dose activity, positive = more growth; 0.4% of 270,000 active; AID 2326; active means well fitted rising curve with a large enough effect; inconclusive means small, poorly fitted or top-dose-only effect; inactive means no such curve, though single readings can be large or run the other way; note: nearly all actives have a fitted effect of over 50% in size
#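 Compounds were scored for reversing the slow growth caused by influenza A NS1 in S. cerevisiae, measured by optical density at 600 nm. Assay medium contained 2% galactose at pH 6.0; NS1-free yeast of the same strain were the positive control.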
# StopGo reporter = lowers the luciferase signal of an FMDV 2A StopGo reporter; human cells with a luciferase reporter of 2A StopGo recoding; control for the full effect not named in the record; 1.2% of 410,000 active; Potency, µM (highest dose often 57.9 µM), for inactives: top-dose signal change, negative = less light; active = well fitted falling curve with a large enough effect; inconclusive = small, poorly fitted or top-dose-only effect; inactive = no such curve, though single readings can be large or run the other way; tested in HEK293T cells; note: % is set by controls: 0 for no effect and ±100 for the full control effect; nearly all actives have a fitted effect of over 45% in size; luciferase light after 4 h
# Cruzain noTriton = blocks cruzain activity in detergent-free assay. 2.3% of 200,000 active. Potency, µM, for the others: max response, negative = inhibition, actives largely listed as inhibitors. P25779. purified cruzain, Z-FR-AMC fluorescence, no detergent;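 note: plate controls were enzyme without inhibitor for no effect and buffer without enzyme for full effect; nearly all actives have a fitted effect of over 40% in size; top concentration of the series not given in the record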
#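 Purified cruzain at 1.5 nM, pre-incubated 15 min with compound at room temperature in 100 mM sodium acetate pH 5.5, 5 mM DTT, 0.00005% Triton X-100. Reaction started with 2 uM Z-FR-AMC; AMC fluorescence increase over 60 s gives rate.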
# SARS PLpro yeast = inhibitors of SARS-CoV papain-like protease in yeast. 0.19% of 330,000 active. AID 485353. Potency, µM (titrated, usually from 32.9 µM), for inactives: at the top dose activity, positive = growth rescue. S. cerevisiae expressing SARS-CoV PLpro, growth rescue; control for the full effect not named in the record; active means well fitted rising curve with a large enough effect; inconclusive means small, poorly fitted or top-dose-only effect; inactive means no such curve, though single readings can be large or run the other way; note: 0% is about no effect; nearly all actives have a fitted effect of over 55% in size; growth read by luminescence after 48 h
# Active calls of the source: *; ? = inconclusive; · = no result given; & = joins results of further samples; [ ] = dose if it differs, or a comment. Unless noted, calls come from the whole dose curve; as a rule, active = well fitted curve in the direction sought with a large enough effect; inconclusive = small, poorly fitted or top-dose-only effect, or another doubt; inactive = no such curve, though single readings can be large; an effect the other way counts as inactive or inconclusive. Potency is the fitted concentration of half-maximal effect.
SMILES,LASV entry inh,RE007 growth inh,Cruzain Triton,Marburg entry inh,NS1 inh,StopGo reporter,Cruzain noTriton,SARS PLpro yeast
O=C(O)CSc1nnc(-c2ccccc2O)n1Cc1ccccc1,22%,5%,3.9%,16%,2%,-11%,-2%,7%
O=C(CC1(O)C(=O)Nc2ccccc21)c1ccccc1 (stereo unspecified),·,9%,3.0%,·,-10%,-2%,-13%,-1%
N#Cc1c(Cl)cccc1N1CCCC1,·,7%,·,·,2%,-11%,·,0%
CSc1ccc(CN(C)C(=O)C(Cc2ccccc2)NC(=O)c2ccccc2)cc1 (stereo unspecified),?,-13%,·,?,-2%,13%,·,-4%
CCc1nnc(NC(=O)CCC(=O)NCc2ccc(OC)cc2)s1,-1%,-11%,·,11%,0%,0%,·,0%
C/C(=N\N1CCN(Cc2ccccc2)CC1)c1ccco1,12%,-2%,·,14%,3%,18%,·,0%
Cc1ccc(C(=O)Nc2ccc(S(=O)(=O)N3CCCC3)cc2)o1,-6%,-13%,·,1%,-5%,0%,·,-2%
O=C(c1ccco1)N1CCN=C1SCc1ccccc1F,·,-12%,4.8%,·,-130%,-4%,-29%,1%
Cc1cccc(-n2ccnc2SCC(=O)Nc2nccs2)c1,-13%,27%,1.7%,19%[46.1 µM],-24%,23%,-2%,5%
CCOC(=O)C1=C(O)/C(=C/c2ccc(OCC(=O)O)c(OCC)c2)SC1=Nc1ccc(C)cc1,22%[46.1 µM],-6%,·,4%[46.1 µM],18%,?,·,0%
C/C(=N\NC(=O)c1ccn[nH]1)c1cn(C)nc1C,?,2%,-3.4%,?,1%,12%,0%,-10%
CSc1nc2ccc(NS(=O)(=O)c3cccc(Cl)c3Cl)cc2s1,8%,-5%,-2.1%,8%,23%,2%,?,-92%
CCC1CCCCN1S(=O)(=O)c1ccc(C(=O)Nc2sc3c(c2C(N)=O)CCC3)cc1 (stereo unspecified),-28%[46.1 µM],·,-4.1%,·,·,0%,-15%,·
C/C(=N\NC(=O)Cn1nc(C)c(Br)c1C)c1cccs1,9%,22%,-2.5%,?,18%,-9%,-4%,-14%
CCn1c(=S)[nH]c2cc(Cl)ccc21,·,10%,·,·,-2%,-6%,·,14%
Cc1cc(Cl)ccc1OCC(=O)N(Cc1ccc(N(C)C)cc1)CC1CCCO1 (stereo unspecified),?,·,-3.6%,?,·,?,23%,·
O=C(Nc1cccc2ccccc12)C1CCN(C(=O)NCc2ccccc2)CC1,?,9%,1.1%,-1%[46.1 µM],12%,-26%,-11%,7%
CC(=O)N1c2ccccc2C(=O)C1N1CCN(c2cc(Cl)ccc2C)CC1 (stereo unspecified),?,·,-0.6%,·,·,?,-20%,·
O=c1ccn(C2CCCO2)c(=O)[nH]1 (stereo unspecified),7%,-3%,·,1%,·,-16%,·,·
CCOC(=O)C1CCCN(C(=O)c2cccc(S(=O)(=O)N3CC(C)OC(C)C3)c2)C1 (stereo unspecified),·,10%,·,·,-1%,-11%,·,1%

# Structures shown so far that contain a COOH group, in the order listed:
SMILES,LASV entry inh,RE007 growth inh,Cruzain Triton,Marburg entry inh,NS1 inh,StopGo reporter,Cruzain noTriton,SARS PLpro yeast
O=C(O)CSc1nnc(-c2ccccc2O)n1Cc1ccccc1,22%,5%,3.9%,16%,2%,-11%,-2%,7%
CCOC(=O)C1=C(O)/C(=C/c2ccc(OCC(=O)O)c(OCC)c2)SC1=Nc1ccc(C)cc1,22%[46.1 µM],-6%,·,4%[46.1 µM],18%,?,·,0%

# Following part.
SMILES,LASV entry inh,RE007 growth inh,Cruzain Triton,Marburg entry inh,NS1 inh,StopGo reporter,Cruzain noTriton,SARS PLpro yeast
COc1cc(C2C(C(C)=O)=C(O)C(=O)N2CCc2c[nH]c3ccccc23)ccc1O (stereo unspecified),3%,-14%,2.5%,3%,4%,17%,-12%,1%
NC(=NCc1ccc2c(c1)OCO2)NC(=O)c1ccccc1,0%,-10%,·,?,-3%,-23%,·,0%
Cc1cc(C)n(/N=C/c2c[nH]c3ccccc23)c(=O)c1,8%,0%,1.2%,?,-8%,25%,-6%,1%
Cc1noc(C)c1S(=O)(=O)Nc1ccc(C(=O)NC2CCCCC2C)cc1 (stereo unspecified),0%,9%,-1.6%,-9%,-13%,-9%,10%,-1%
COc1ccc(OC)c(NC(=O)Cn2cc(C#N)c3ccccc32)c1,2%,-10%,-3.4%,17%,-48%,·,-7%,1%
CN1CCN(CC(O)COCCOc2ccc(Br)cc2)CC1 (stereo unspecified),?,-17%,-1.4%,0%,4%,-5%,8%,-2%
COCCn1c(N)c(C#N)c2nc3ccccc3nc21,4%,2%,-14%,19%,0%,-7%,-6%,4%
Cn1c(O)c(C=NCCCN2CCCC2=O)c(=O)n(C)c1=O,?,7%,2.5%,7%,-5%,9%,6%,0%
CC(C)(C)NCCCCOc1ccc(F)cc1,3%,-8%,0.4%,0%,7%,·,0%,2%
O=C(Nc1nc(-c2cccnc2)cs1)c1ccc([N+](=O)[O-])cc1,2%,-21%,·,-18%,2%,-13%,·,0%
c1cnn(-c2cncc(-n3cccn3)n2)c1,-1%[46.1 µM],10%,·,14%[46.1 µM],8%,-8%,·,0%
CC1CN(Cc2nnc(-c3ccccc3)o2)CC(C)O1 (stereo unspecified),5%,21%,·,?,·,0%,·,-4%
O=C(Nc1ccnc(-c2cccnc2)n1)c1ccc(Cl)cc1,2%,5%,0.8%,-3%,-3%,29%,-4%,-4%
Cc1nc(-c2ccc(Cl)cc2)sc1C1(C)CC(c2ccc([N+](=O)[O-])cc2)=NO1 (stereo unspecified),·,-2%,·,·,1%,6%,·,-1%
COc1ccccc1C1C2C(=O)N(c3ccccc3)C(=O)C2ON1c1ccccc1 (stereo unspecified),9%,-20%,0.6%,5%,2%,-9%,3%,-6%
COc1ccc(NC(=O)C2CCN(S(=O)(=O)c3ccc(N4CCCC4=O)cc3)CC2)cc1OC,17%[46.1 µM],-9%,·,-16%[46.1 µM],-3%,-23%,·,2%
CCOP(=O)(OCC)c1cccc(OP(=O)(c2cccc([N+](=O)[O-])c2)c2cccc([N+](=O)[O-])c2)c1,-12%,-3%,·,1%[46.1 µM],-3%,-7%,·,-1%
COc1cccc(NC(=O)CSc2nnnn2C(C)C)c1,9%,27%,5.0%,10%,0%,34%[activator],4%,-2%
Cn1c(=O)[nH]c(=O)c2c1nc(Br)n2C/C=N/NC(=O)c1ccccc1,18%,-18%,·,25%[14.2 µM],-1%,7%,·,0%
CCCS(=O)(=O)N1CCCC(C(=O)NCc2ccc(C)cc2)C1 (stereo unspecified),-2%,1%,-1.6%,6%,2%,-5%,-1%,2%
CCOCCCNC(=O)c1cc(Nc2ccc(OC)cc2OC)nc2ccccc12,-14%[46.1 µM],5%,·,?,-5%,-4%,·,-2%
COc1ccc(-c2oc3ccc(-c4cc(OC)c(OC)c(OC)c4)cc3c2C(=O)c2ccc(OC)nc2)cc1,·,-9%,·,·,0%,-16%,·,4%
CCCc1ccc(-c2cc(C(=O)N3CCN(c4ccccn4)CC3)c3ccccc3n2)cc1,·,-10%,·,·,26%,?,·,-1%
CC(C)N(CCc1ccncc1)C(=O)Nc1ccc(F)cc1,·,-5%,1.4%,·,?,-8%,6%,6%
CN(C)CCNc1ncnc2c1sc1nc(N3CCOCC3)c3c(c12)CC(C)(C)SC3,?,-2%,3.3%,15µM*,1%,?,10%,1%
COc1ccccc1NC(=O)CSCc1ccc([N+](=O)[O-])cc1,·,15%,·,·,-6%,-25%,·,0%
Cn1cnnc1SCC(=O)Nc1ccc(S(=O)(=O)N2CCOCC2)cc1,11%,0%,·,8%,·,-7%,·,-2%
Fc1ccc(CSc2nncn2NCc2ccc3c(c2)OCO3)cc1,-4%,3%,-2.6%,-8%,-3%,-19%,-2%,-3%
Cc1ccc(S(=O)(=O)N2CCOCC2)cc1NC(=O)COc1ccc2c(C)cc(=O)oc2c1,?,8%,·,?,7%,?,·,-4%
CCN(CC)CCCN(Cc1cc2cc3c(cc2[nH]c1=O)OCO3)C(=O)Nc1ccccc1OC,17%,-19%,-9.8%,0%&0%,0%,2%,-1%,-1%
COc1ccccc1NC(=O)N1C2CCCC1CC(NC(=O)c1ccccc1)C2 (stereo unspecified),-1%[46.1 µM],-6%,·,2%[46.1 µM],·,-4%,·,4%
COc1cc(CN(C(=O)c2cccc(C)c2)c2ccccn2)cc(OC)c1OC,-27%[46.1 µM],·,-1.8%,0%[46.1 µM],·,-24%,-9%,·
Cn1cc(C(O)CN2CCCCC2)c2ccccc21 (stereo unspecified),·,-2%,·,·,25%,-7%,·,6%
CC1CCCC(C)N1S(=O)(=O)c1ccc(S(=O)(=O)NCc2ccccc2)cc1 (stereo unspecified),-12%,1%,0.4%,-19%,0%[9.22 µM],·,-29%,17%
Cc1ccc(NC(=O)CN2C(=O)NC3(CCc4ccccc43)C2=O)cc1 (stereo unspecified),-23%[46.1 µM],6%,·,?,2%,-5%,·,0%
O=Cc1cn(CC(=O)Nc2ccc(F)cc2)c2ccccc12,?,2%,·,?,·,-5%,·,4%
CCOC(=O)c1cnc2cc(C)nn2c1-c1ccccc1,-2%,-13%,1.9%,-13%[46.1 µM],-7%,-6%,14%,4%
C=CCn1c(SCC(=O)NC2CCCCC2)nnc1-c1ccc(OC)cc1,?,-3%,0.8%,9%,-8%,-2%,-9%,4%
CCCCn1c(O)c(C(C)=NCc2cccnc2)c(=O)[nH]c1=O,28%,-15%,·,4%,2%,-5%,·,1%
Cc1ccc(CNC(=O)CSc2nc(=O)[nH]c3c2CCCC3)cc1,14%[46.1 µM],·,0.1%,·,·,-10%,-6%,·
COc1cccc(C(=O)NCCSCc2c(F)cccc2Cl)c1,-9%,-7%,·,28%,-55%,44%[activator],·,-10%
COn1c(SCc2ccc(Cl)cc2)nc2ccccc2c1=O,-18%,8%,-1.6%,2%,-47%,?,2%,-16%
CCC(=O)N1CCc2cc(S(=O)(=O)NC(C(=O)N3CCN(c4ccc(F)cc4)CC3)C(C)C)ccc21 (stereo unspecified),·,-15%,·,·,-1%,-12%,·,1%

# Assay outcomes deposited in PubChem by National Center for Advancing Translational Sciences (NCATS).
